MgrA DNA FP: modulators of Staphylococcus aureus MgrA DNA binding | fluorescence polarization | inhibition, %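 (about 10 µg/mL by stock and volumes)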 | hit rate 0.13% among 84,000 | AID 602314;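 active = above 50% in either of two replicates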;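 note: 0% = protein plus DNA without compound and 100% = DNA alone without protein; higher means less MgrA bound to DNA so lower polarization; one replicate is shown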
Sa helicase inh: S. aureus DNA helicase inhibition. purified S. aureus helicase, fluorescence unwinding assay; about half of the hits fall short of the stated cut. inhibition, %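 (tested at about 80 µM)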. hit rate 0.05% among 120,000. AID 485395;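 active = both duplicates at 50% or more, or one of them with a favoured structure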;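 note: 0% = mean of negative control wells and 100% = mean of positive control wells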
Active calls of the source: *; / = no result given.

SMILES | MgrA DNA FP | Sa helicase inh
COc1ccc2[nH]c(C)cc(=O)c2c1 | -1.2 | -21
COc1ccccc1C1CCN(C(=O)c2ccccc2C)CC1 | -1.6 | /
Cc1cc(N2CCC(C)CC2)nc2cccc(O)c12 | 0.3 | 16
CCOc1cc(N2CCOCC2)c(OCC)cc1NC(=O)C1=NN(c2ccccc2)C(=O)CC1 | / | -9
O=C(CCCC(=O)c1ccccc1)Nc1ncn[nH]1 | 2.1 | -4
COc1ccc(NC(=O)CSC2=NCCN2)cc1 | / | 3
Cc1ccc(C(=O)CC(C(=O)O)n2cncn2)cc1 (stereo not drawn) | / | -8
Cc1ccc(-c2nnc(SCC(=O)NCC3COc4ccccc4O3)o2)cc1 (stereo not drawn) | / | -4
CCc1noc(CC)c1C(=O)O | -7.0 | -9
CC(=O)/C=C(\O)c1ccc(Cl)cc1 | / | 12
CC(C)(C)c1ccc(-c2noc(CCn3c(=O)oc4ccccc43)n2)cc1 | 0.5 | /
O=C(Nc1ccc(N2CCN(Cc3ccccc3Cl)CC2)cc1)c1ccc2c(c1)OCCO2 | 0.8 | 3
CN(C)/C=C(\C#N)c1nc2ccccc2[nH]1 | 0.0 | 13
CCCCNC(=S)Nc1ccc(C(C)C)cc1 | -0.2 | /
NC(=O)COC(=O)Cc1cccc2ccccc12 | / | -7
N#CC1C(=O)NC(=S)C(C(N)=O)C12CCCCC2 (stereo not drawn) | / | 10
N/C(CC(=O)Nc1cc(Cl)cc(Cl)c1)=N\O | -1.0 | /
CC(C)Cn1cnc2c1c(=O)n(CC(=O)N1CCc3ccccc31)c(=O)n2Cc1ccccc1 | / | -4
O=C(Nc1cccc(-c2nc3ccccc3[nH]2)c1)C1=COCCO1 | / | 13
CCOC(=O)c1c(/N=C/c2ccccc2O)sc(C)c1C | 1.5 | -1
S=C(c1ccc(-c2ccccc2)o1)N1CCN(c2ccccc2)CC1 | / | 0
CCOC(=O)c1ccc(NC(=O)Cn2ncc3c4ccccc4n(Cc4ccccc4)c3c2=O)cc1 | / | 37
CC1Cc2ccccc2N1C(=O)CSc1nncn1C (stereo not drawn) | -0.6 | -17
COc1cc(/C=C2/SC(=S)N(c3ccc4ccccc4c3)C2=O)ccc1O | / | -22
O=C1CS/C(=N\S(=O)(=O)c2ccccc2)N1Cc1ccccc1 | / | -8
CC(C)OC(=O)c1cc2c(ccn2-c2ccc(F)cc2)n1CCC#N | 0.8 | 12
COc1ccc(-c2noc(CN(C)C(=O)Cc3ccc(OC)c(OC)c3)n2)cc1 | 1.2 | -15
O=C(Cc1c(F)cccc1Cl)OCN1C(=O)c2ccccc2C1=O | / | 4
Cc1ccc(-c2nc3cccc(C)n3c2Nc2ccc3c(c2)OCCO3)o1 | / | -24
O=C(NCCCN1CCCC1=O)c1ccccc1NS(=O)(=O)c1ccc(F)cc1 | / | -3
O=C(CSc1ncn[nH]1)NC(c1ccccc1)c1ccccc1 | / | 8
CCOc1ccc(C(N)CC(=O)OC)cc1 (stereo not drawn) | 2.2 | 16
Cc1ccc(-n2nc(C(=O)N3CCCC3)c3c4ccccc4n(C)c3c2=O)cc1 | 1.1 | 7
CC(C)(C)c1ccc(N=Cc2ccccc2O)cc1 | -1.8 | /
CC1CCN(C(=O)Cn2c(SCC(=O)NC(C)(C)C)nc3ccccc32)CC1 | -0.8 | 8
N#CC(=C1Nc2ccccc2N1)c1nc(C#N)c(C#N)nc1Cl | 10 | 4
CCc1nnc(/N=C/NO)s1 | 3.2 | /
CC(=O)N/C(=C\c1ccccc1)C(=O)OCc1nc(N)nc(Nc2ccccc2C)n1 | / | 12
O=c1c2ccccc2ncn1CCOc1cccc(C(F)(F)F)c1 | -0.2 | 0
Cc1ccc(S(=O)(=O)NC(C(=O)Oc2ccc3c4c(c(=O)oc3c2)CCCC4)C(C)C)cc1 (stereo not drawn) | -18 | 20
COc1ccc(C2C(C#N)=C(N)OC3=C2C(=O)CC(C)(C)C3)cc1COc1ccc(F)cc1 (stereo not drawn) | 2.7 | /
O=C(NC(=S)N1CCCC1)c1ccccc1 | 4.5 | 13
CCN(CC)C(=O)c1ccc(COc2ccccc2Cl)cc1 | 1.1 | 12
CN(C(=O)COC(=O)c1cc(=O)c2ccccc2o1)c1ccccc1 | / | -10
CCOC(=O)c1c(NC(=O)CCN2CCOCC2)sc(C)c1-c1ccccc1 | / | -13
CN1CCN(S(=O)(=O)N(C)C)CC1 | -0.1 | /
CCOC(=O)c1ccc(-c2ccc(/C=C3\C(=O)N(c4cccc(Cl)c4)N=C3C)o2)cc1 | -2.8 | /
Cn1c(=O)c2[nH]c(SCC(=O)C(C)(C)C)nc2n(C)c1=O | / | -7
CC(=O)C1COc2ccc(C)cc2C1=O (stereo not drawn) | 2.4 | /
CCN(C(=O)c1cn(CC(C)C)c(=O)c2cc(OC)c(OC)cc12)c1ccccc1C | / | 9
The results go on:
SMILES | MgrA DNA FP | Sa helicase inh
COCCN1C(=O)/C(=C/c2sccc2C)SC1=S | -1.0 | -8
CC(=O)NCCNc1nc2c(S(=O)(=O)c3ccc(C)cc3)nnn2c2ccccc12 | / | -19
C=CCOc1nc(N(C)C)nc(N2CCOCC2)n1 | / | 8
C=CCn1c(CCN2CCCCC2)n[nH]c1=S | / | 5
N#Cc1oc2ccccc2c1NC(=O)CSc1nnc2n(-c3ccccc3)c(=O)c3ccccc3n12 | / | 6
Clc1ccc(C2(c3noc(-c4cccs4)n3)CC2)c(Cl)c1 | / | 18
O=C1CC(C(=O)N2CCOCC2)C2(CCCCC2)O1 (stereo not drawn) | -0.5 | /
Cc1ccc(OCCN)c(Br)c1 | -3.4 | 4
CC(C)(C)c1cc2ncc(S(=O)(=O)c3ccc(Cl)cc3)c(N)n2n1 | 1.4 | /
Cc1c(/C=C(\C#N)C(=O)Nc2nccs2)cc(C#N)n1C | / | 13
Cc1cc(C)n2c(SCC(N)=O)nnc2n1 | / | 5
COc1cc2c3c(c1OC)C1(C=CC(=NNC(N)=O)C=C1)CC3N(C(C)=O)CC2 (stereo not drawn) | -2.3 | 3
C/C(=N\NC(=O)Cc1cc(=O)[nH][nH]1)c1ccco1 | / | 20
N#CC1(NC(=O)CNc2ccc(I)cc2)CCCC1 | / | 3
O=CNC1c2ccccc2Oc2ccccc21 | -0.9 | -3
CCN(CC)C(=S)NCCc1ccccc1 | 0.7 | 17
Cc1cc2c(c(=O)[nH]1)C(=O)O/C2=C\c1ccco1 | 31 | -24
COc1cccc(CN2CCc3[nH]c(=S)[nH]c(=O)c3C2)c1 | -1.3 | -7
O=C1CCCC2=C1C1(O)C(=O)c3ccccc3C1(O)O2 (stereo not drawn) | 4.8 | -7
CCOc1ccc2oc(-c3cc(Br)cc4c3OCOC4)c(N)c(=O)c2c1 | / | -6

Another view of four compounds above:
SMILES	MgrA DNA FP	Sa helicase inh
COc1ccc(NC(=O)CSC2=NCCN2)cc1	/	3
Cc1ccc(C(=O)CC(C(=O)O)n2cncn2)cc1 (stereo not drawn)	/	-8
Cc1ccc(-c2nnc(SCC(=O)NCC3COc4ccccc4O3)o2)cc1 (stereo not drawn)	/	-4
CCc1noc(CC)c1C(=O)O	-7.0	-9

Continuation:
SMILES | MgrA DNA FP | Sa helicase inh
O=C1c2cccc3cc(Br)cc(c23)C(=O)N1Nc1ccc(Cl)cc1 | -0.1 | 17
O=C(c1cnc2ccccc2n1)N1CCN(S(=O)(=O)c2ccc3c(c2)OCCCO3)CC1 | / | 16
O=C1Sc2ccc(S(=O)(=O)Nc3ccc(Br)cc3)c3cccc1c23 | -1.2 | 8
COCC(C)n1c(COc2ccccc2F)nnc1SCC(=O)OC(C)(C)C (stereo not drawn) | / | 5
CN1C(C(=O)Nc2cccnc2)=CC(c2ccco2)=NS1(=O)=O | / | -19
CCc1cccc(C)c1N(C(=O)c1ccco1)C1=NCCC(=O)S1 | 1.4 | /
COc1ccc(Nc2nc3ccccc3[nH]2)cc1 | / | 11
N#C/C(=C\c1ccccc1)C(=O)OCC1CCCO1 (stereo not drawn) | / | 4
O=C(COC(=O)c1ccccc1)NC1CCCCCC1 | -0.2 | 0
CC(C)c1ccc(NC(=O)C(c2ccccc2)N(C)C(=O)Cc2cccs2)cc1 (stereo not drawn) | 0.6 | 4
O=C(Oc1ccccc1)C1CCN(c2ccc(C(F)(F)F)cn2)CC1 | -1.9 | /
O=C1/C(=C/c2ccccc2Cl)CCC/C1=C\c1ccccc1Cl | -0.5 | /
COc1ccc(C(=O)Nc2nc3c(s2)CC(C)CC3)cc1 (stereo not drawn) | / | -14
O=C(CCc1nc2ccccc2[nH]c1=O)OCC(=O)c1ccc(F)cc1 | / | -7
N#CC(Cc1cccs1)c1nc2ccccc2[nH]1 (stereo not drawn) | 3.0 | -6
Cc1ccc(N=Cc2ccncc2)cc1 | 1.3 | -17
O=C(Nc1ccc(N2CCCC2)cc1)c1cc2ccccc2o1 | / | 12
CC1(C)Cc2cccc(C(=O)Nc3ccc(C(F)(F)F)cc3)c2O1 | 1.0 | /
COc1ccc(C/C(C#N)=C/N2CCN(c3ccccc3F)CC2)cc1 | / | 16
Cc1ccc(Cl)cc1NC(=O)N1CCN2CCCCC2C1 (stereo not drawn) | / | -15
Cc1cc(C)n2nc(C(=O)NCc3ccc4c(c3)OCO4)nc2n1 | / | 6
CN(Cc1ccccc1)c1cc(N2CCC3(CC2)OCCO3)c2noc3c2c1C(=O)c1ccccc1-3 | / | -122
CCCCNC(=O)c1cn(CC)c2ccc(S(=O)(=O)N(C)C3CCCCC3)cc2c1=O | / | -22
NC(=O)COC(=O)COc1ccccc1 | -1.1 | 45
CCCC1CCC(C(=O)NC(C(=O)O)C(C)C)CC1 (stereo not drawn) | -6.1 | 7
CCC(C)NC(=O)C1CCC(=O)N1CCc1ccccc1 (stereo not drawn) | 0.9 | 0
O=c1c(Cl)c(Cl)cnn1C12CC3CC(CC(C3)C1)C2 | 4.7 | -9
CC(=O)Nc1ccc(F)c(C#N)c1 | 4.0 | /
COc1cccc(C(=O)/C=C(\Nc2ccc3c(c2)COC3=O)C(=O)O)c1 | 0.6 | 9
Cc1cc(=O)oc2cc(OC(=O)C3CCCN3C(=O)OC(C)(C)C)c(Cl)cc12 (stereo not drawn) | 1.4 | -3

Overlap with the part before: 2 compounds; new compounds follow.
SMILES | MgrA DNA FP | Sa helicase inh
COc1cccc(C(=O)/C=C(\Nc2ccc3c(c2)COC3=O)C(=O)O)c1 | 0.6 | 9
Cc1cc(=O)oc2cc(OC(=O)C3CCCN3C(=O)OC(C)(C)C)c(Cl)cc12 (stereo not drawn) | 1.4 | -3
CC(=O)NC1C(OCC(C)C)OC(COC(C)=O)C(OC(C)=O)C1OC(C)=O (stereo not drawn) | / | -22
CCn1c(C(=O)N2CCC(C(=O)N3CCc4ccccc4C3)CC2)cc2occc21 | / | 22
COC(=O)C1CCCN1S(=O)(=O)c1ccc(Cl)cc1 (stereo not drawn) | / | 9
COc1cc(OC)cc(C(=O)Nc2ccc3oc(-c4ccc(OC)c(Br)c4)nc3c2)c1 | -1.3 | /
COCCn1cnc2cc(C)c(C)cc21 | / | 21
CCOC(=O)c1cc(C)nc(Sc2ccc(Cl)cc2)n1 | 0.9 | /
CCOC(=O)C1CCN(c2ccc([N+](=O)[O-])cc2)CC1 | 0.3 | /
Oc1cccc(O)c1 | 3.9 | /
CCOC(=O)C1=C(C)NC2=C(C(=O)C(C(=O)OC)C(C)C2)C1c1ccc(OC)cc1 (stereo not drawn) | / | 13
O=C(Cn1cncn1)N/N=C/c1cccs1 | / | -4
CCOC(=O)c1c(NC(=O)c2sc3cc(Cl)ccc3c2Cl)sc2c1CCCC2 | -1.4 | /
COc1ccc(CCNC(=O)c2ccc3c(c2)S(=O)(=O)N=C2CCCCCN23)cc1OC | / | -4
O=C(Nc1ccc2c(c1)OCO2)C1CCCC1 | / | -12
CN1C(C(=O)NCC23CC4CC(CC(C4)C2)C3)=CC(c2ccco2)=NS1(=O)=O | 1.8 | -12
O=C(O)c1cccc(CSc2nnc(COc3ccccc3)o2)c1 | / | -19
Cc1ccc(-n2c(=O)c3ccccc3n3c(SCC(=O)N(C(C)C)C(C)C)nnc23)c(C)c1 | / | -4
Cc1cc2ncn(C(C)c3ccccc3)c2cc1C (stereo not drawn) | 0.1 | 16
N#Cc1c(-c2ccccc2)nc(SCCN2C(=O)c3ccccc3C2=O)[nH]c1=O | -3.5 | 18
Cc1oc2nc[nH]c(=O)c2c1C(=O)O | / | -11
CC1CCN(S(=O)(=O)c2ccc(C(=O)Nc3nc(-c4ccncc4)cs3)cc2)CC1 | / | 20
O=C(Cc1cccs1)Nc1cccc(-c2nn[nH]n2)c1 | 2.3 | 19
CCn1cc2c(n1)C(=O)N(c1ccccc1)C1c3ccccc3C(=O)N21 (stereo not drawn) | 0.8 | 23
CC1(C)CC(=O)C(C=NCCN2CCN(C3CC(=O)N(c4ccc(Br)cc4)C3=O)CC2)=C(O)C1 (stereo not drawn) | / | 31
CCC1CCCCN1C(=O)C1CCCCC1 (stereo not drawn) | -0.9 | 5
CCOC(=O)c1c(C)oc2c1c1c(c3ccccc32)OCN(CCc2ccccc2)C1 | 1.7 | 12
N#C/C(C(N)=O)=C1/CCc2ccccc2N1 | -0.8 | 2
CCN(CC)S(=O)(=O)c1ccc(N=Nc2sc(N)nc2-c2ccccc2)cc1 | / | 1

Structural class: the entries above containing a COOH group.
SMILES | MgrA DNA FP | Sa helicase inh
Cc1ccc(C(=O)CC(C(=O)O)n2cncn2)cc1 (stereo not drawn) | / | -8
CCc1noc(CC)c1C(=O)O | -7.0 | -9
CCCC1CCC(C(=O)NC(C(=O)O)C(C)C)CC1 (stereo not drawn) | -6.1 | 7
COc1cccc(C(=O)/C=C(\Nc2ccc3c(c2)COC3=O)C(=O)O)c1 | 0.6 | 9
O=C(O)c1cccc(CSc2nnc(COc3ccccc3)o2)c1 | / | -19
Cc1oc2nc[nH]c(=O)c2c1C(=O)O | / | -11

Screens as filed in PubChem.

This is a subset, so the mix of outcomes need not match the whole.
